NPYLR7 ag = mosquito NPYLR7 agonism; 0.15% of 270,000 active; HEK293T NPYLR7/Galpha15, GCaMP6s calcium fluorescence; activation, % at 10 µM; AID 1259423; in the data active means activation above about 40%;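 further: 0% = vehicle and 100% = reference agonist at the receptor; some compounds past the cut are filed as inactive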
NPYLR7 ag max-min = further read-out of NPYLR7 ag, marked with its call; activation, %; measured here: Max-Min RFU normalised activation; some inactives read as strong as hits;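 span of the calcium signal over five minutes; 0% = vehicle and 100% = native peptide agonist; compound fluorescence can raise it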
The depositor's hits bear a star.

compound,NPYLR7 ag,NPYLR7 ag max-min
COC(=O)c1cc(Cl)c2c(c1)CC(CNC(=O)c1ccccc1OC)O2 (stereo not drawn),17,6
Clc1ccc(-c2nc(CSc3nc4ccccc4s3)cs2)cc1,4,5
CC(C)C(C)N(Cc1cnc[nH]1)Cc1ccco1 (stereo not drawn),24,6
CC(=O)Nc1sc2c(c1-c1nc3ccccc3s1)CCCC2,3,1
COc1ccc(N2C3=[N+](CCCC3)CC2(O)c2ccc(F)cc2)cc1 (stereo not drawn),-3,-14
COC(=O)c1cccc(N2C(=O)C3C(C2=O)C2(C)C=CC3(C)O2)c1 (stereo not drawn),10,8
COc1ccccc1C(C)NC(=O)C1CCCN1C(=O)c1cc(Cl)cc(Cl)c1 (stereo not drawn),7,5
Cc1ccc(CCNC(=O)CC2C(=O)N(C)C(=O)N2C)cc1C (stereo not drawn),2,6

A second format for two compounds above:
Below each SMILES: NPYLR7 ag | NPYLR7 ag max-min
> COc1ccc(N2C3=[N+](CCCC3)CC2(O)c2ccc(F)cc2)cc1 (stereo not drawn)
    -3 | -14
> COC(=O)c1cccc(N2C(=O)C3C(C2=O)C2(C)C=CC3(C)O2)c1 (stereo not drawn)
    10 | 8

Additional compounds follow:
compound,NPYLR7 ag,NPYLR7 ag max-min
OC(COCc1ccco1)CN(Cc1cccc(Cl)c1)CC1CC(c2ccccc2Cl)=NO1 (stereo not drawn),-3,3
O=C1NCCN(Cc2ccccc2)C1CC(=O)N1CCC(O)(c2ccccc2)CC1 (stereo not drawn),0,-1
O=C1NC2(CCCC2)C(=O)N1CCS(=O)(=O)Oc1ccccc1,1,-2
COc1cccc(Cc2nsc(N(CCC(=O)NCCc3ccc(Cl)cc3Cl)Cc3ccco3)n2)c1,-10,-14
Cn1c(=O)n(CCc2ccccc2)c(=O)c2c1nc1n2CCCN1C1CCCCC1,0,7
O=[N+]([O-])c1ccc(S(=O)(=O)NCc2ccc3ccccc3c2-c2ccccc2)cc1,-13,-24
CCc1noc(C)c1C(=O)N1CCC(CCC(=O)Nc2cccc(OC)c2)CC1,9,-1
CC1CN(CCn2cncn2)c2ccccc2NC1=O (stereo not drawn),0,2
CC(=O)c1c(C(C)=O)c(C)n(-c2nc(-c3ccc(Br)cc3)c(C)s2)c1C,6,5
CCN(C(=O)CCc1nc(-c2ccccc2F)no1)C1CCOC(C)(C)C1 (stereo not drawn),16,14
CC1=NC2=C(C(=O)CCC2)C(c2ccc(Cl)c(Cl)c2)C1C#N (stereo not drawn),17,12
COc1cccc(C2CC(c3cccs3)=NN2C(=O)CN2CCCCC2)c1OC (stereo not drawn),2,-2
CCCCC(=O)Nc1nnc(SCc2cccc(Cl)c2F)s1,12,7
NC(=O)C1CCN(C(=O)c2ccc(=O)n(Cc3ccc(F)cc3)n2)CC1,5,8
Cc1ccc(NC(=O)NCc2ccncc2)c(Br)c1,6,6
CNc1snc(C)c1C(=O)NCc1ccc2c(c1)CCC2,3,1
O=c1ccc(-c2nc(-c3cccnc3)no2)nn1-c1ccc(F)cc1,-5,-7
Cc1ccc(-n2nc(C(=O)NCCN3CCOCC3)c(=O)n(Cc3ccccc3Cl)c2=O)cc1,10,25
O=C(c1ccnc(Cl)c1)N1CCC(n2c(=O)oc3ccc(F)cc32)CC1,22,28
CCNC(=O)N(C)c1c(CC)nc2ccc(C(=O)NCCN(C)C)cn12,-2,-3
COCCNC(=O)C(NC(=O)c1ccc(OC)cc1)C1CCN(C(=O)Nc2ccc(C)cc2)CC1 (stereo not drawn),7,7
Cc1ccc(CN2CC(C(=O)N3CCN(C)C(=O)C3)CC2=O)cc1 (stereo not drawn),2,-1
O=C(NCc1ccc(Cl)cc1)c1ccc2c(c1)OCCO2,3,1
CC(C)C(C)(C#N)NC(=O)COC(=O)C12CC3CC(CC(Cl)(C3)C1)C2 (stereo not drawn),-3,20
Cc1nc(N)sc1-c1csc(N)n1,1,8
Cn1cc(C(CC(=O)NCc2ccncc2)c2cccc(C(F)(F)F)c2)c2ccccc21 (stereo not drawn),5,12
CCc1nc2ccc(C(=O)NCc3ccc(OC)cc3)cn2c1N(CC)C(C)=O,-4,-9
O=C1CC(Sc2ncn[nH]2)C(=O)N1c1ccc(I)cc1 (stereo not drawn),-2,-9
CC(C)c1cc(C(C)C)n(C2CCN(C(=O)COc3ccc(F)cc3)CC2)n1,20,16
Nc1nc(CSc2nnc(NC3CC3)s2)nc(Nc2ccc(F)cc2)n1,17,13
Cc1ccc(NC(=O)C2(C)CCN2C2Cc3ccccc3C2)cc1O (stereo not drawn),10,1
CC1=CCC(C(C)(C)NC(=O)c2ccccc2)C/C1=N\O (stereo not drawn),-1,6
O=C(Nc1cnc2n1CCCC2)c1cccc2cnccc12,14,9
c1ccc(-c2ncn(CCN3CCCCC3)c2-c2ccoc2)cc1,3,-3
O=C(CCc1nc2sc3c(c2c(=O)[nH]1)CCC3)Nc1ccccc1,4,-2
Cc1ccc(C(=O)N(C)C(C)c2nccs2)cc1N1CCNC1=O (stereo not drawn),-5,-8
C#CCn1c(=NC(=O)c2ccc(OC)cc2)sc2cccc(OC)c21,2,1
COc1cn(CC(=O)NCc2ccccc2)c(CN2CCN(c3ccccc3)CC2)cc1=O,-4,-4
CCCNC(=O)C1(NC(=O)Cc2ccccc2OC)CCCCC1,4,3
C/C=C(\C)CN(C)CCN(C)C,-10,-18
CCc1cc(=O)[nH]c2nnc(SCC(=O)NC)n12,0,-6
Cc1ccc(N2C(=O)CC(N3C(=O)C(=Cc4ccccc4)SC3=S)C2=O)cc1 (stereo not drawn),0,-4
O=C(Nc1ccc(F)c(Cl)c1)N1CCN(c2cc(-n3cccn3)ncn2)CC1,20,14
Cc1nc2ccccn2c(=O)c1NC(=O)COc1ccc(C(=O)c2ccccc2)cc1,-4,-1
CC(C)(C)C(=O)Nc1cccc(NC(=O)CSc2ccccc2)c1,2,2
CC1=CCC=CC1C(=O)NC1CCc2[nH]c3c(C)cc(Cl)cc3c2C1 (stereo not drawn),31,20
Cc1ccccc1N1CCN(c2cc(Cl)nc(SCc3cccc(C(=O)N4CCc5ccccc5C4)c3)n2)CC1,13,15
CSc1ccc(C(NC(=O)c2cc(C(F)(F)F)cc(C(F)(F)F)c2)c2cccc(Cl)c2Cl)cc1 (stereo not drawn),-12,-24

In the list so far, 8 contain an aryl thioether with sulfur outside any ring.
compound,NPYLR7 ag,NPYLR7 ag max-min
Clc1ccc(-c2nc(CSc3nc4ccccc4s3)cs2)cc1,4,5
CCCCC(=O)Nc1nnc(SCc2cccc(Cl)c2F)s1,12,7
O=C1CC(Sc2ncn[nH]2)C(=O)N1c1ccc(I)cc1 (stereo not drawn),-2,-9
Nc1nc(CSc2nnc(NC3CC3)s2)nc(Nc2ccc(F)cc2)n1,17,13
CCc1cc(=O)[nH]c2nnc(SCC(=O)NC)n12,0,-6
CC(C)(C)C(=O)Nc1cccc(NC(=O)CSc2ccccc2)c1,2,2
Cc1ccccc1N1CCN(c2cc(Cl)nc(SCc3cccc(C(=O)N4CCc5ccccc5C4)c3)n2)CC1,13,15
CSc1ccc(C(NC(=O)c2cc(C(F)(F)F)cc(C(F)(F)F)c2)c2cccc(Cl)c2Cl)cc1 (stereo not drawn),-12,-24

Next part
compound,NPYLR7 ag,NPYLR7 ag max-min
COCC(=O)Nc1cc(C(=O)N[C@H](C)c2cccc(OC)c2)c2c(c1)ncn2Cc1ccc(F)cc1,21,9
CC(C)=CCN1CCNC(=O)C1CC(=O)NCc1ccccc1-n1cccn1 (stereo not drawn),-2,-3
CC(C)OC(=O)c1cc(NC(=O)c2cnc3ccccn23)ccc1Cl,19,15
Cc1ccc(C)c(OC(C)C(=O)NCCNc2cccnc2)c1 (stereo not drawn),2,0
CC1=NNC(=O)C1CCC(=O)NN=Cc1sccc1C (stereo not drawn),-6,-10
CC(=O)NCCNC(=O)C1Cc2c(-c3cccc(NC(C)=O)c3)ccnc2O1 (stereo not drawn),5,3
CS/C(=C\C(=O)c1ccc(C)cc1)C(=O)c1ccc(C)cc1,1,4
O=C(Nc1ccc(N2CCCC2=O)cc1)c1cccc(-c2nn[nH]n2)c1,-2,-4
O=C(Cc1ccc(N2CCCC2=O)cc1)NC1CCCCCC1,3,9
COCc1ccc(C(=O)N2CCc3c(c(C(=O)O)nn3CC3CC3)C2)o1,0,9
CCSc1nnc(SCc2cc([N+](=O)[O-])cc3c2OCOC3)s1,-1,1
CC(C)(C)c1nc(CC(=O)NC(C#N)c2ccsc2)cs1 (stereo not drawn),9,3
NC(=O)CSc1ccc(-c2cccc(CN3CCOCC3)c2)cc1,-4,-4
Cc1ccc(CNC(=O)C2COc3ccccc3C2)s1 (stereo not drawn),7,3
COCCN(Cc1cccn1C)C(=O)CN(C(=O)Nc1ccc(Cl)c(Cl)c1)C(C)C,-5,1
CN(C)/C=C1\C(=O)NC(Cc2cscn2)C1=O (stereo not drawn),9,-2

An excerpt of these results, with each value named:
structure: CCSc1nnc(SCc2cc([N+](=O)[O-])cc3c2OCOC3)s1
  NPYLR7 ag: -1 | NPYLR7 ag max-min: 1
structure: NC(=O)CSc1ccc(-c2cccc(CN3CCOCC3)c2)cc1
  NPYLR7 ag: -4 | NPYLR7 ag max-min: -4
structure: CC(C)(C)c1nc(CC(=O)NC(C#N)c2ccsc2)cs1 (stereo not drawn)
  NPYLR7 ag: 9 | NPYLR7 ag max-min: 3

Additional results follow.
compound,NPYLR7 ag,NPYLR7 ag max-min
CCCC(C)(C)C(=O)N1CCC1(C)C(=O)NCc1ccc2c(c1)OCO2 (stereo not drawn),3,-2
CC(=O)c1c(C)oc2ccc(NS(=O)(=O)c3ccc4c(c3)C(=O)c3ccccc3C4=O)cc12,-7,-10
CC(C)c1ccccc1OC1CC2CCC(C1)N2C(=O)c1ccc(CSc2ncccn2)cc1 (stereo not drawn),10,-3
Cc1nc(-c2cccc3ccccc23)n(CC(=O)Nc2ccc3c(c2)CCC3)c1C,14,9
CC(=O)c1ccc(OC(C)C(=O)Nc2ccccc2N2CCOCC2)cc1 (stereo not drawn),3,1
O=C1CCc2cc(S(=O)(=O)NC3CCCCC3)ccc2N1,-1,5
CCNC(=O)[C@@]1(OCc2ccccc2C#N)CC(OCc2ccc(F)cc2)[C@@H]2OC(C)(C)O[C@@H]2C1 (stereo partly drawn),-13,-6
c1ccc2c(c1)OCC(CSc1nnnn1C1CCCC1)O2 (stereo not drawn),6,6
Nc1c(Oc2ccc(S(=O)(=O)Oc3ccccc3)cc2)cc(O)c2c1C(=O)c1ccccc1C2=O,4,-2
CCCCN(CC(=O)N(CCc1c[nH]c2ccccc12)Cc1ccccc1)C(=O)Nc1ccc(C(=O)OCC)cc1,-10,-3
CCOC(=O)c1c(N)c2c(-c3ccccc3)c(C#N)c(OCC)nc2n1C,3,5
COc1ccc(OCC(=O)Nn2cnc3c(cnn3C(C)(C)C)c2=O)cc1,6,4
CCn1nc(C)cc1C(=O)Nc1cc(C)nn1-c1nc2ccc(F)cc2s1,-6,-12
CC(=O)Nc1cccc(Cc2nc3cc(Cl)ccc3o2)c1,23,31
CCc1ccc(N2CCC(NS(=O)(=O)N(CC)CC)CC2)cc1,0,-2
Cc1ccc(-n2ncc3c2CCCC3NC(=O)CSc2nncn2C)cc1C (stereo not drawn),5,5
[N-]=[N+]=CC(=O)C1(c2ccccc2)CCCC1,7,1
COc1cc(C(CC(=O)c2ccc(Cl)cc2)SCCO)cc(OC)c1OC (stereo not drawn),-5,-7
COc1ccc(Cl)cc1CN1C(=O)C(Cc2cccc(F)c2)ON=C1c1ccncc1 (stereo not drawn),13,4

Compound activity as filed in PubChem BioAssay.

Only part of the results is shown (hit frequency here may not be typical).
